# ALR inh: inhibitors of human sulfhydryl oxidase ALR | P55789 | purified ALR, DTT oxidation, H2O2 HRP-luminol luminescence | inhibition, % (no concentration beside the values) | 3.8% of 290,000 active | AID 485317;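 active means mean and each replicate at 75% or more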;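 further: stock transfer was 7.5 nL into about 7.5 µL; 0% = neutral wells and 100% = wells with inactivated enzyme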
# LANA-H2A inh: blocks KSHV LANA binding to histone H2A/H2B; inhibition, % (concentration not given with the values); 0.6% of 320,000 active; Q9QR71; cell-free LANA-H2A/H2B peptide, fluorescence polarization; in the data active means inhibition mostly above about 10%, no sharp cut-off; inactive means mostly below about 6.7%;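 further: stock transfer was 7.5 nL into about 10 µL; 0% = median of vehicle wells and 100% = median of positive control wells; one replicate is shown; the record names a cut of 25% in any replicate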
# Target sequence (Q9QR71 whole entry, looked up): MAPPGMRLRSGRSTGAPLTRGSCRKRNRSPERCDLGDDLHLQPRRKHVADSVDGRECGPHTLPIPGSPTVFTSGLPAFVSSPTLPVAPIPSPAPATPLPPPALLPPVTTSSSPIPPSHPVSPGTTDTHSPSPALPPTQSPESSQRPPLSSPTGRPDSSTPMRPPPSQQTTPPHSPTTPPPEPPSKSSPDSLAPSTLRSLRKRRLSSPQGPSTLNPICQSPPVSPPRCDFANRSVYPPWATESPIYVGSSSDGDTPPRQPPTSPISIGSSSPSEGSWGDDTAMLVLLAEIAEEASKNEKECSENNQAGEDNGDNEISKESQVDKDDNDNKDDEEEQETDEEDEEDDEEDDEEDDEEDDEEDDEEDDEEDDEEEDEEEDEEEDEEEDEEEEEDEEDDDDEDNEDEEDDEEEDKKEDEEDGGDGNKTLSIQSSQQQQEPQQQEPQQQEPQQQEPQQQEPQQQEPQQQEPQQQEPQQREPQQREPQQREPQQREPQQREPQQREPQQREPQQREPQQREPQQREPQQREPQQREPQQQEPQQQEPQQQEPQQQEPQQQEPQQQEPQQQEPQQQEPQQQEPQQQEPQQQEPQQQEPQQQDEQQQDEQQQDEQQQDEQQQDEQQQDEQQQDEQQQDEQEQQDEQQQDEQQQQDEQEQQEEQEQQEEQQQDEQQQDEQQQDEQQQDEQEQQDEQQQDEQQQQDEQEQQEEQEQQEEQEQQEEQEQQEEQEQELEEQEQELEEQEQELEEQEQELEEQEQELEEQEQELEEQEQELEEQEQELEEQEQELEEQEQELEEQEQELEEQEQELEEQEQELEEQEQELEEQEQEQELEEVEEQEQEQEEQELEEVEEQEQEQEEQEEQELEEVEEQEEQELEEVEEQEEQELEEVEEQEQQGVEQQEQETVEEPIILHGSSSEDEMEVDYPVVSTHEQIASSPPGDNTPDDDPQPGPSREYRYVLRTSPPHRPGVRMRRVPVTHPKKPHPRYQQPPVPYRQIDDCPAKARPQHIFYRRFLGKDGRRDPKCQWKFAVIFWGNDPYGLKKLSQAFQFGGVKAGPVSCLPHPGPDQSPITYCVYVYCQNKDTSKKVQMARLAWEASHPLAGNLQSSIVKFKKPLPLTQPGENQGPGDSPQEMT
# T cruzi repl: blocks replication of Trypanosoma cruzi; T. cruzi beta-gal in NIH3T3, luminescence, 90 h; inhibition, % (concentration not given with the values); 1.4% of 300,000 active;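 active means mean inhibition across valid replicates above about 55%, limit read from the data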;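 further: signal also drops with host cell toxicity which is not excluded here; 0% = plate median of DMSO wells and 100% = zero luminescence signal; higher percent means less beta-gal luminescence so fewer parasites; stock transfer was 50 nL into about 50 µL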
# Beta cell apopt: blocks beta cell apoptosis. INS-1E cytokine-induced death, ATP luminescence, 48 h; percent of positive-control rescue, neutral wells zero. protection from apoptosis, % (concentration not given with the values). 0.8% of 300,000 active;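 active means all replicates at 75% or more, or half of them and the mean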;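 further: 0% = cytokine-treated negative control wells and 100% = positive control rescue; higher means more ATP so stronger rescue from cytokine killing; wells of about 40 µL received 100 nL stock; the first replicate is given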
# Calb FLC: affects C. albicans growth with fluconazole; C. albicans CaCi-2 (fluconazole-resistant clinical isolate) + fluconazole, Alamar Blue growth, 48 h; growth inhibition, % (test concentration not listed); 0.57% of 300,000 active;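 active means most replicates above 75%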;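 further: all wells also contain fluconazole at 8 µg/ml as a sub-toxic cotreatment; 0% = median of DMSO wells and 100% = median of geldanamycin control wells; wells of about 8 µL received 7.5 nL stock; the first replicate is given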
# Ecoli rRNA inh: inhibitors of bacterial rRNA selective over humanized ribosomes | 1.6% of 350,000 active | E. coli WT GFP vs humanized-ribosome RFP mutants, fluorescence, 24 h; active compounds read low; DMSO median 0, no signal -100 | GFP signal change (wild-type ribosome), % (no concentration beside the values);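 active means significant combined selectivity score with lowered wild-type GFP, culture density cut under 30%, mutant RFP and density less affected; inactive means any of these conditions unmet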; further: one replicate is shown; some compounds called inactive have numbers as strong as hits
# Bfl-1 A1 inh: inhibitors of the anti-apoptotic protein A1, read as caspase activation. caspase activation, % (concentration not given with the values). AID 2462. MEF A1-2A-BIM cells, Caspase-Glo 3/7 luminescence, 3 h; percent of clofoctol response, vehicle zero. 0.066% of 330,000 active;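 active means over half of replicate activation scores above 10%, or exactly half above 10 with the replicate mean above 10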;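 further: wells of about 30 µL received 50 nL stock; many hits fall short of the cut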
# Beta2AR agonist: activates human beta-2 adrenergic receptor causing internalization; 0.43% of 340,000 active; P07550; AID 504454; Am2.2-beta2AR cells, FAP receptor internalization, flow cytometry; reference of the scale not given here; response, % (no concentration beside the values);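 active means response above a set limit, near 3 SD of response in nonfluorescent compounds, cut at about 42% in these data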;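 further: stock transfer was 100 nL into about 11 µL; a reference agonist was the positive control; negative values mostly stem from fluorescent compounds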
# Ecoli rRNA inh OD600: recorded beside Ecoli rRNA inh, whose call it bears; OD600 change, %; measured here: OD600 growth;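 optical density of the mix in the first replicate; 0 = DMSO median and -100 = no signal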
# Ecoli rRNA inh RFP: second read-out of Ecoli rRNA inh, no call of its own (marks repeat the call); RFP signal change, %; measured here: RFP humanized mutant strains;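 first replicate; 0 = DMSO median and -100 = no signal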
# * hit, by the source's call; / = no result given; & = joins results of further samples. Some of the compounds tested; rates above refer to the full screens.
SMILES,ALR inh,LANA-H2A inh,T cruzi repl,Beta cell apopt,Calb FLC,Ecoli rRNA inh,Ecoli rRNA inh OD600,Ecoli rRNA inh RFP,Bfl-1 A1 inh,Beta2AR agonist
N#Cc1ccc(C(c2nnnn2C2CCCC2)N2CCC(Cc3ccccc3)CC2)cc1 (stereo not drawn),-3,0.2,53,15,5,/,/,/,-0.8,2
Cc1nc2nc(C)c(CCC(=O)N3CCc4ccccc43)c(C)n2n1,0,-1.1,-7,-4,15,/,/,/,-0.3,-10
COc1cccc(NC(=O)c2ccnc(N3CCC(C(=O)NCc4cc(OC)ccc4OC)CC3)c2)c1,0,-2.7,30,1,0,/,/,/,-0.1,8
CC(=O)c1ccc(NC(=O)CN(C)CC(=O)Nc2cccc(F)c2)cc1,-5,-1.1,-2,-3,6,-19,-5,7.0,0.6,2
CCOC(=O)N1CCC(Nc2c(NCCN3CCN(Cc4ccccc4)CC3)c(=O)c2=O)CC1,2,4.4,2,-8,-5,12,3,-8.7,0.2,-7
COc1ccc(CSC2=CS(=O)(=O)c3ccccc3N2)cc1,/,0.9,-3,3,22,-20,-26,-3.2,0.5,0
CC1CN(c2ccc(Cl)cc2)c2nc3c(c(=O)[nH]c(=O)n3C)n2C1 (stereo not drawn),/,/,-13,/,0,15,16,-0.5,/,2
COc1ccc(NC(=O)CC2SC(=NCC3CCCO3)NC2=O)c([N+](=O)[O-])c1 (stereo not drawn),-54,1.8,1,-2,4,17,14,0.9,1.3,-3
N#Cc1ccccc1COC(=O)CCC(=O)c1cccs1,/,-0.9,/,4,/,-2,-4,-0.1,0.6,5
c1ccc(OCCOCCSc2ncccn2)cc1,-1,-0.2,-14,-6,4,/,/,/,0.1,3
CCn1c(SCC(=O)OC(C)C)nnc1-c1cccc(Cl)c1,-16,1.1,-5,5,9,/,/,/,0.3,3
CCOC(=O)c1cc(-c2ccccc2)nn1-c1ccccn1,/,5.4,4,-3,-3,/,/,/,-0.9,8
CCCc1nc2oc3c(NCCN4CCOCC4)ncnc3c2c2c1CCCC2,6,0.7,12,6,17,/,/,/,-0.7,-12
O=C(O)c1cc(-n2[nH]c(=O)c3ccccc3c2=O)ccc1Cl,4,0.2,-14,-6,-2,6,12,-2.5,1.8,4
CCC(CO)Oc1cc(NCc2ccc(C(F)(F)F)cc2)c2ncn(C(C)C)c2c1 (stereo not drawn),-7,0.7,/,-2,/,0,3,10,0.1,14
Cc1cc(C)cc(NC(=O)CSc2ccccc2)c1,-5,-2.4,0,1,-3,-26,-33,-1.7,0.0,5
Cc1cc(C)c[n+](-c2nc([O-])sc2C=O)c1,-4,-1.1,18,-14,2,/,/,/,1.0,3
CC(C)(C)c1ccc(OCC(=O)O)cc1,-6,-4.6,-1,-3,19,/,/,/,0.2,5
O=Cc1ccccc1-c1cn(CCCOCc2ccccc2)nn1,-1,-2.9,-7,-2,7,-12,-6,-0.9,2.8,7
CC(C)CNC(=O)c1ccc(Cl)c(N)c1,-2,-0.8,-3,-7,2,/,/,/,0.4,/
CC(C)(C)c1cccc(Oc2nn[nH]n2)c1,6,2.2,-6,-13,-5,/,/,/,1.5,0
CC(C)c1ccc(C2N3CC4([N+](=O)[O-])CN2CC([N+](=O)[O-])(C3)C4(C)C)cc1 (stereo not drawn),-1,-5.0,-4,1,-7,12,17,0.8,0.9,-7
COc1ccc(C2(CNC(=O)CCC(=O)O)CCCC2)cc1OC,-4,1.3,-8,/,33,/,/,/,0.1,10
N#Cc1ccc(OCC(=O)NCCc2ccccn2)cc1,6,-2.0,-15,3,5,/,/,/,-0.5,-1
O=C(C1CCCN(Cc2ccccc2)C1)N1CCCCC1 (stereo not drawn),/,2.0,35,-5,-5,/,/,/,0.0,-5
COc1cc(C(=O)OCC(=O)NC2CCCCC2)cc2c1OCCO2,5,-0.9,/,3,/,7,10,1.0,-0.4,-2
CC1(C)CC2CC(C)(CN2CC(O)COc2ccccc2)C1 (stereo not drawn),-3,5.1,1,-2,-6,16,13,2.0,0.0,11
COc1cccc(Oc2ccc(C(F)(F)F)cc2NC(=O)C2=COCCO2)c1,-3,-1.4,28,-3,-10,3,-14,0.6,-1.7,-2
Cc1ccc(S(=O)(=O)N2CC3(C)CN(S(=O)(=O)c4ccc(C)cc4)CC(C)(C2)C3=O)cc1,-8,-12,1,-12,0,/,/,/,0.2,-7
Cc1cc(C)cc(OCC(=O)Nc2ccc3c(c2)C(=O)c2ccccc2C3=O)c1,-15,3.4,13,2,37,2,5,-4.2,-3.7,3

# Single entries from the entries so far:
# Under T cruzi repl, `O=C(C1CCCN(Cc2ccccc2)C1)N1CCCCC1` (stereo not drawn) is listed with 35
# Under Ecoli rRNA inh OD600, `COc1cccc(Oc2ccc(C(F)(F)F)cc2NC(=O)C2=COCCO2)c1` is listed with -14
# Under LANA-H2A inh, `COc1ccc(C2(CNC(=O)CCC(=O)O)CCCC2)cc1OC` is listed with 1.3

# Continuation.
SMILES,ALR inh,LANA-H2A inh,T cruzi repl,Beta cell apopt,Calb FLC,Ecoli rRNA inh,Ecoli rRNA inh OD600,Ecoli rRNA inh RFP,Bfl-1 A1 inh,Beta2AR agonist
O=C(Nc1ccc2ccccc2c1)/C(=C/c1cccc(Br)c1)NC(=O)c1ccco1,-7,6.4,27,-1,-4,-2,-3,0.1,0.7,3
Cc1cc(=O)n2nc(N3CCCC(C(=O)NCCc4ccc(Cl)cc4)C3)sc2n1 (stereo not drawn),/,4.3,7,-1,-11,-5,-13,0.3,3.4,10
CC(NC(=O)NNC(N)=S)(C(F)(F)F)C(F)(F)F,4,2.3,-13,-10,-11,/,/,/,0.4,1
CCOc1ccc(OCC(=O)NCCS(=O)(=O)N2CCN(c3ccc(F)cc3)CC2)cc1,4,0.9,-25,5,-2,0,9,-0.8,-0.3,0
C[C@H](CO)N1C[C@H](C)[C@H](CN(C)S(=O)(=O)c2cccs2)Oc2ccc(NC(=O)Nc3ccc4c(c3)OCO4)cc2CC1=O,1,5.7,/,0,/,-1&1,-9&-3,26&1.1,-0.6,0
O=C(NCCN1CCOCC1)c1cc(-c2ccccc2Cl)on1,-3,1.5,2,/,7,4,6,-1.3,0.1,-6
Oc1ccc(Nc2nc(-c3ccccc3O)nc3ccccc23)cc1,50,3.9,-11,-1,21,-58,-76,-18,0.5,12
O=C(C1c2ccccc2Oc2ccccc21)N1CCN(c2ccc(Cl)cc2)CC1,-5,1.4,/,11,/,/,/,/,1.7,3
CCCCOC(=O)COc1ccc(Cl)cc1Cl,-11,14*,/,0,/,2,2,0.8,0.7,3
C[C@@H]1C2CC(C/C2=N\NC(=O)c2ccncc2)C1(C)C (stereo partly drawn),-8,-4.1,11,-9,-6,-10,-10,1.7,0.8,3
COc1cc(/C=N/Nc2nc3ccccc3[nH]2)ccc1O,100*,-1.5,-40,18,-13,-32,-42,0.7,-1.2,-55
CCNC(=S)N(CCc1c(C)[nH]c2ccccc12)Cc1cc(OC)c(OC)c(OC)c1,/,-0.1,11,0,16,-8,-13,2.3,-0.7,-7
COc1ccc(NC(=O)CN(C)C(=O)c2ccc3c(c2)S(=O)(=O)N=C2CCCCCN23)cc1,-8,2.0,-10,-6,8,16,10,3.3,0.2,-3
NC(=O)CSc1nnc(COc2ccccc2)n1CCc1ccccc1,1,-0.9,-5,-3,-17,/,/,/,0.1,-15
O=C(NC(=S)NCCN1CCOCC1)c1ccc(F)cc1,4,3.6,-6,-4,1,1,0,-4.7,-0.8,9
CN(C)c1ccc(/C=C2\SC(=O)N(CCc3nnc(N)s3)C2=O)cc1,97*,-3.4,5,4,-3,-10,-18,-3.3,1.2,-11
CC(Sc1ccc2c(c1)OCCO2)C(=O)Nc1ccc(N2CCOCC2)cc1 (stereo not drawn),99*,-0.8,-10,-1,-1,5,2,3.5,0.4,-5
COc1ccc(OCC(=O)N2CCN(c3cccc(C(F)(F)F)c3)CC2)cc1,24,3.7,2,1,-4,/,/,/,-0.1,5
Cc1ccccc1NC(=O)Cn1nnc(S(=O)(=O)c2ccc(C(C)(C)C)cc2)c1N,/,1.9,-3,1,-2,5,8,0.7,0.6,8
CC1(C)CC(=O)C2=C(C1)N(CC1CCCO1)C(=O)C2(O)C(F)(F)F (stereo not drawn),-7,-1.4,-3,4,0,/,/,/,0.1,-6
NNC(=O)c1nc(-c2ccccc2)n2c1CCCCC2,8,-0.9,-2,-3,7,-14,-17,4.3,1.5,-4
CC(C)(C)c1cc(C(=O)N/N=C/c2ccco2)n[nH]1,-4,0.3,-25,/,35,/,/,/,1.1,2
O=C(NNC(=O)c1ccccc1-n1cccc1)c1ccc(Cl)c(Cl)c1,/,-2.9,5,-1,-5,/,/,/,0.3,0
COc1ccc(S(=O)(=O)NC(CC(=O)NCCc2ccc(OC)c(OC)c2)C(C)C)cc1 (stereo not drawn),1,-2.9,18,-4,16,9,12,1.7,-0.4,-3
COCCNC(=O)C(=O)Nc1ccc2c(c1)N(S(=O)(=O)c1cccs1)CCC2,/,-1.2,3,7,2,-3,-10,-0.5,0.6,-14
CCOC(=O)N1CCN(c2c(NCc3ccc(N(C)C)cc3)c(=O)c2=O)CC1,-10,-1.1,-11,-3,-5,15,9,-0.7,0.6,5
Cc1cc(C)n(-c2ccc(C(=O)N3CCC(CO)(Cc4ccccc4)CC3)cc2)n1,/,3.1,4,10,13,-22,-18,-2.1,0.5,-4
Cc1ccc(-c2cc(C(F)F)n3ncc(C(=O)Nc4ccc(S(=O)(=O)Nc5ccccc5C)cc4)c3n2)cc1,0,-0.5,32,-2,6,/,/,/,-0.3,-3

# One compound at a time (already shown):
# CC1CN(c2ccc(Cl)cc2)c2nc3c(c(=O)[nH]c(=O)n3C)n2C1 (stereo not drawn) is listed with ALR inh: /; LANA-H2A inh: /; T cruzi repl: -13; Beta cell apopt: /; Calb FLC: 0; Ecoli rRNA inh: 15; Ecoli rRNA inh OD600: 16; Ecoli rRNA inh RFP: -0.5; Bfl-1 A1 inh: /; Beta2AR agonist: 2
# O=C(NCCN1CCOCC1)c1cc(-c2ccccc2Cl)on1 is listed with ALR inh: -3; LANA-H2A inh: 1.5; T cruzi repl: 2; Beta cell apopt: /; Calb FLC: 7; Ecoli rRNA inh: 4; Ecoli rRNA inh OD600: 6; Ecoli rRNA inh RFP: -1.3; Bfl-1 A1 inh: 0.1; Beta2AR agonist: -6

# 3 compounds out of the list above, ordered by the number in Ecoli rRNA inh OD600, ascending.
SMILES | Ecoli rRNA inh OD600
Cc1cc(C)n(-c2ccc(C(=O)N3CCC(CO)(Cc4ccccc4)CC3)cc2)n1 | -18
NNC(=O)c1nc(-c2ccccc2)n2c1CCCCC2 | -17
COCCNC(=O)C(=O)Nc1ccc2c(c1)N(S(=O)(=O)c1cccs1)CCC2 | -10

# Compound activity: PubChem, several laboratories
